High-throughput results (PubChem BioAssay)
VDR inhibitor = blocks the human vitamin D receptor. 400,000 compounds, 0.93% hits. Potency, µM, for the others: max response, negative = inhibition, actives largely listed as inhibitors. P11473. VDR-SRC2-3 peptide fluorescence polarization, 2 h. AID 504847; active means well fitted inhibition curve with a large enough effect; inconclusive means small, poorly fitted or top-dose-only effect, or another doubt; inactive means no such curve, though single readings can be large or run the other way; further: series mostly up to about 120 µM
Target sequence (P11473 whole entry, looked up): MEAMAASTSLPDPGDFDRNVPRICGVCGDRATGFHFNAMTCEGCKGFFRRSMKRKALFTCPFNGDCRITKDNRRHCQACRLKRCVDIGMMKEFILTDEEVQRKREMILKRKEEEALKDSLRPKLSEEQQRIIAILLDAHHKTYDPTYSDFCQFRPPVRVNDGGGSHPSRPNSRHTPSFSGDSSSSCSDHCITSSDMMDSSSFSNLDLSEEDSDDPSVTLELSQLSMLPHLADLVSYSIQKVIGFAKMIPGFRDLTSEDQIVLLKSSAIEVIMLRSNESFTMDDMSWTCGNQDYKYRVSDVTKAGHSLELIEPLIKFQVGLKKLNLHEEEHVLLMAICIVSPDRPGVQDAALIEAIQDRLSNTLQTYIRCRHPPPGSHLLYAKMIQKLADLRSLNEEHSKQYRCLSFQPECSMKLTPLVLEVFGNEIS
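The screen uses fluorescence polarization to detect compounds that interfere with recruitment of the SRC2-3 coactivator peptide to VDR; plates are read after 2 h at room temperature.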
The depositor's hits bear a star; u = inconclusive; & = joins results of further samples. On the % scale 0 is the no-effect control and ±100 the full control effect; potency means the concentration at half of the fitted maximal effect. Some of the compounds tested; the hit share may differ from the screen's.

SMILES	VDR inhibitor
Cc1ccc(CCNC(=O)C2CCN(S(=O)(=O)c3ccc4c(c3)oc(=O)n4C)CC2)cc1	-12.2%
COc1ccc(-c2nc(SC(CC(=O)NCc3ccccc3)c3ccc(OC)c(OC)c3)n[nH]2)cc1 (stereo not drawn)	-5.6%
O=C(O)Cc1c[nH]c2cccc(O)c12	-15.5%
Cc1ccc(NC(=O)CCNS(=O)(=O)c2ccccc2)cc1S(=O)(=O)N1CCOCC1	-15.8%
CC1CCc2cc(F)ccc2N1C(=O)CSc1nnc2c3ccccc3n(C)c2n1 (stereo not drawn)	9.0%
COc1ccc(N/C=C(\C=C\C#N)S(=O)(=O)c2ccccc2)cc1	-4.3%
COc1cc(Br)cc2cc(C(=O)N3CCN(C(=O)c4ccco4)CC3)c(=O)oc12	2.2%
COc1cc(C(=O)N2CCN(C(=O)C3CCCO3)CC2)cc(OC)c1OC (stereo not drawn)	10.3%
O=C(c1csnn1)N1CCC2(CC1)CCN(c1ccncc1)CC2	7.3%
Cc1cc(C)c(C#N)c(Nc2ccc3c(c2)OCCO3)n1	7.8%
c1ccc(-c2nnsc2-c2ccccc2)cc1	5.3%
CCCn1c(C)cc(C(=O)COC(=O)c2cc(S(=O)(=O)NCC(C)C)c(Cl)cc2Cl)c1C	-6.5%
CC(=O)N1CCN(c2ccc(S(C)(=O)=O)cc2[N+](=O)[O-])CC1	-6.1%
CC(=O)N1N=C(c2ccco2)CC1c1ccc(C)cc1 (stereo not drawn)	-9.7%
COc1ccc(-n2c(SCc3ccc([N+](=O)[O-])cc3)nnc2-c2ccc(C)cc2)cc1	-14.3%
Fc1ccccc1COc1ccc(/C=N/NC(=S)NCc2ccccc2)cc1	-4.8%
Cn1c(-n2cccc2)c(-c2c(-c3ccccc3)[nH]c3c2c(=O)[nH]c(=O)n3C)c(=O)[nH]c1=O	4.1%
O=C(C1CC1)N1CCc2cc(Br)cc(S(=O)(=O)N3CCCCCC3)c21	-12.9%
COc1ccc(-n2c(Cn3c(=O)sc4ccccc43)nnc2SCC(=O)N2CCCC2)cc1	-8.3%
COc1ccc(C(=O)Nc2ccnn2C2CCN(Cc3cn(C)nc3C)CC2)cc1	23.2%
COc1ccccc1C(=O)NNC(=O)c1nn(Cc2ccccc2)c(=O)c2ccccc12	-12.3%
COc1ccccc1NC(=O)c1ccccc1NC(=O)c1ccccc1C(=O)O	-15.4%
CCOC(=O)N1CCC(Nc2nc3ccccc3n3cnnc23)CC1	-13.2%
COc1ccc(Cc2nc3ccccc3c(=O)n2N)cc1OC	6.6%
CO/N=C(/C(=O)NC1C(=O)N2C(C(=O)O)=C(COC(N)=O)CSC12)c1ccco1 (stereo not drawn)	-11.2%
Other compounds follow.
SMILES	VDR inhibitor
O=C1CNC(=S)N1c1nc(-c2ccccc2)cs1	-13.3%
CS(=O)(=O)N(CC(=O)Nc1ccc(C(N)=O)cc1)C1CCCCC1	9.6%
CCCOC(=O)c1c(NC(=O)C(C)Sc2nc(-c3ccccc3)cc(C(F)(F)F)n2)sc(C(=O)N(C)C)c1C (stereo not drawn)	u
O=C(COC(=O)CCSc1ccc(Cl)cc1)NCc1ccc(Cl)cc1	7.3%
CCCCN1CC(O)=C(c2nc(-c3ccc(Cl)cc3)cs2)C1=N	3.7%
COc1ccc(NC(=O)CN(C)C(=O)CN2C(=O)C3CCCCC3C2=O)cc1 (stereo not drawn)	-0.4%
COc1ccc(F)cc1S(=O)(=O)NCCc1csc2nc(-c3cccc(C)c3)nn12	9.8%
COc1cc(S(=O)(=O)N(C)Cc2ccc3c(c2)OCCO3)ccc1NC(C)=O	-8.4%
CC1CCN(C(=O)C2CCC(=O)N(Cc3ccc(Cl)cc3)C2)CC1 (stereo not drawn)	1.4%
Cc1cccc(C(=O)NCC(=O)NCC(c2cccs2)N2CCOCC2)c1 (stereo not drawn)	10.0%
COc1ccccc1NC(=O)CSc1nc2c(oc3ccccc32)c(=O)n1-c1ccccc1F	5.6%
O=C(O)C1CC1C(=O)Nc1cc(F)ccc1F (stereo not drawn)	-7.6%
Oc1ccc2c(c1)c1c3n2CCNC3CCC1 (stereo not drawn)	7.0%
Cc1ccc(N2C(=O)CS(=O)C(c3ccccc3)C2=O)cc1C (stereo not drawn)	u
Clc1ccc(Sc2ccccn2)cc1	3.3%
Cn1c(N)c(C(C[N+](=O)[O-])c2c(F)cccc2Cl)c(=O)n(C)c1=O (stereo not drawn)	-5.9%
OCC(Cc1ccccc1)Nc1c2ccccc2nc2ccccc12 (stereo not drawn)	-27.6%
C=C(C)CC1N(c2cccc(OC)c2)C(=O)C2C(C(=O)O)C3C=CC21O3 (stereo not drawn)	-20.0%
Cc1cccc(NC(=O)CNC(=O)COC(=O)C2CC2C)c1C (stereo not drawn)	8.4%
CN(C)S(=O)(=O)c1cccc(N2C(=O)CC3(CCCCC3)CC2=O)c1	-12.8%
CN(c1ccccc1)S(=O)(=O)c1cc(C(=O)OCC(=O)N2CCN(C(=O)c3ccco3)CC2)ccc1Cl	-2.4%
COc1cc(CC(=O)O)ccc1O	-3.4%&-16.1%
Cc1ccc(CCNS(=O)(=O)c2cc3c(cc2Cl)NC(=O)CO3)cc1	-15.9%
CCOC(=O)N1CCC(NC(=O)C2CCCN(c3nc4ccccc4o3)C2)CC1 (stereo not drawn)	2.5%
Cc1ccc(CNC(=O)c2ccc3c(c2)nc2n3CCCC2)cc1	4.0%
(next part)
SMILES	VDR inhibitor
Cc1ccc[n+](CC(=O)Nc2ccc([N+](=O)[O-])cc2)c1	-23.4%
Cc1ccc(NC(=O)Cn2nc(N3CCN(c4ccccc4)CC3)ccc2=O)cc1F	6.0%
COc1ccc(CC(=O)c2cc(OC)c(OC)cc2CC(=O)O)cc1OC	5.0%
COc1ccccc1NC(=O)NC(=O)N(C(C)C)S(C)(=O)=O	4.3%
CCOC(=O)c1[nH]c(C)c(C(=O)NCCc2ccccc2)c1C	-1.0%
COc1ccccc1NC(=O)COC(=O)C1C2CC3OC(=O)C1C3C2 (stereo not drawn)	-6.5%
C1=Nc2c(Nc3ccccc3)ncnc2Oc2ccccc21	17.6%
CCOC(=O)Nc1ccc(C(=O)Oc2ccccc2)c(O)c1	26.1%
CC(C)(C)c1ccc(C(=O)Nc2cnccn2)cc1	4.6%
O=C(CCn1c(=O)c2ccccc2n(Cc2cccc(Cl)c2)c1=O)NCCc1ccccc1	-6.7%
COc1ccc(S(=O)(=O)N2CCc3cc4c(cc3C2C)OCCCO4)cc1 (stereo not drawn)	-27.3%
O=C(O)C1Nc2c(C(=O)N3CCOCC3)cccc2C2C=CCC12 (stereo not drawn)	u
CCOC(=O)C1CN(S(=O)(=O)c2ccc(OC)cc2)c2cc(S(=O)(=O)CC)ccc2O1 (stereo not drawn)	6.9%
O=C(Nc1ccccc1C(F)(F)F)NC1(C(=O)N2CCOCC2)CCCCC1	u
Cc1ccccc1NC(=O)Cc1nc(CN(C)CC(=O)Nc2cccc(F)c2)cs1	-5.7%
CCc1ccccc1OCCCCN1CCCCC1	-0.6%
Nc1[nH]c(N=NC(=O)c2ccccc2O)c2ccccc12	2.2%
Cc1ccc(NC(C(=O)c2ccccc2)c2ccccc2)cc1 (stereo not drawn)	-4.7%
CC(=O)NCCc1nc2cc(NC(=O)COc3ccc(C)cc3)ccc2n1C	-4.1%
Cc1cc(C)n(-c2cc(-n3nc(C)cc3C)ncn2)n1	1.9%
Cc1ccc(OCCNC(=O)c2cccc(Oc3ccc(C(F)(F)F)cc3[N+](=O)[O-])c2)cc1	17.5%
Cc1ccc(C(=O)Nc2ccc(Cl)c(-c3nc4ncccc4o3)c2)c(C)c1	9.2%
COc1ccccc1CC(=O)Nc1ccc(S(=O)(=O)N2CCCC2)cc1	-23.2%
Cc1c(Cl)cccc1NC(=S)NCCC(c1ccccc1)c1ccccc1	0.9%
CC(=O)c1ccc(NC(=O)c2ccc(-c3nc(COc4ccc(C)cc4)c(C)o3)cc2)cc1	-5.4%
(continued)
SMILES	VDR inhibitor
CC1CCN(C(=O)/C(=C\c2ccco2)NC(=O)c2ccccc2)CC1	8.0%
O=C(c1ccc([N+](=O)[O-])cc1)N1CCC(Cc2ccccc2)CC1	-6.5%
O=c1oc2cc(OCc3ccc(F)cc3F)ccc2cc1-c1ccccn1	18.4%
CC(C)(C)N1CC(c2nc3ccccc3n2Cc2ccc(F)cc2)CC1=O (stereo not drawn)	-9.7%
Cc1cccc2nc(CSc3nnc(N)s3)cn12	1.2%
COc1ccc(-n2nnnc2SCC(=O)N2CCN(C(=O)c3ccco3)CC2)cc1OC	-22.8%
Cc1ccc(S(=O)(=O)c2c(C)cc(C)nc2N2CCOCC2)cc1	-0.3%
O=C(NC1CCCCCC1)C1CCN(S(=O)(=O)c2c(Cl)cccc2Cl)CC1	-9.6%
COC(=O)c1sccc1NC(=O)CC1NCCNC1=O (stereo not drawn)	-0.3%
COc1ccc(NC(=O)c2oc3ccccc3c2C)cn1	-5.0%
COc1ccc(OCc2nnc(SCC(=O)Nc3ccc(C)cc3)o2)cc1	-21.3%
O=C(c1cnn2c(C(F)(F)F)cc(-c3cccs3)nc12)N1CCN(Cc2ccccc2)CC1	-8.1%
Oc1ccccc1-c1cc(-c2ccc(F)cc2)n[nH]1	0.8%
COc1ccc2oc(=O)c(C(=O)Nc3ccc(C(=O)O)cc3)cc2c1	3.0%
O=c1c(C(c2ccc(Br)cc2)c2c(O)nc3n(c2=O)CCS3)c(O)nc2n1CCS2	u
CCCCCc1ccc(OCCCC[n+]2ccccc2)c(CCCCC)c1	18.5%
CCCn1cc(S(=O)(=O)c2ccc(F)cc2)c(=O)c2cc(OCC)ccc21	-21.6%
COC(=O)c1ccc(CSC2=NC[C@@H]3[C@@H]4C(=O)N(C)C(=O)[C@@H]4[C@](C)(C(=O)OC)N23)cc1	9.8%
CCN(C[C@H]1N[C@@](Cc2ccccc2)(C(=O)OC)[C@H]2C(=O)N(Cc3ccccc3)C(=O)[C@@H]12)C(=O)c1ccccc1	15.6%
CCOC(=O)[C@H]1[C@H]2COc3cc(OC)ccc3[C@@H]2N2C(=O)CN(CC3CCCO3)C(=O)[C@@]12C (stereo partly drawn)	0.6%
C[C@@H](O)CNC(C)(C)CC(=O)N[C@@H]1CCc2ccccc2N(Cc2ccc(-c3ccccc3-c3nn[nH]n3)cc2)C1=O	2.0%
COc1ccc(CNc2nc(-c3ccc(Cl)cc3)cc(C(F)(F)F)n2)cc1	-2.4%
C=CCOc1c(Cl)cc(CNc2nccs2)cc1OC	-1.4%
Cc1cc(=O)[nH]c(SCC(=O)NC(C)C2CC3CCC2C3)c1C#N (stereo not drawn)	3.9%
Cc1ccc(S(=O)(=O)N2CCCCC2)cc1C(=O)N1CCN(c2ccccn2)CC1	0.0%
The results go on:
SMILES	VDR inhibitor
CCOC(=O)Cn1nc(C)c(NC(=O)c2ccc(Br)o2)c1C	3.1%
CCOc1ccccc1NC(=O)c1c(NCc2ccc(C)o2)sc2c1CCCCC2	-0.8%
CCn1c(SCC(=O)Nc2nc(-c3ccccc3)cs2)nnc1-c1ccccc1	-8.8%
Cc1ccc(/C=N/N2CCN(Cc3cccc4ccccc34)CC2)s1	3.2%
CCCCC[C@@H](O)c1cc2ccccc2c(=O)o1	6.7%
Cn1nc(C(=O)NC2CCCCC2)c2c1-c1ccccc1SC2	-19.2%
CC(/C=C1\SC(=S)N(CCCC(=O)Nc2ccc(C(=O)O)cc2)C1=O)=C\c1ccccc1	-22.4%
O=C(NC1CCN(Cc2ccccc2)CC1)c1cc(S(=O)(=O)Nc2ccc(F)cc2)ccc1Cl	0.5%
Cc1ccc(C(=O)NCC(=O)N2CCN(c3cccc(Cl)c3)CC2)s1	27.2%
Cc1cc(-c2nnc(CCC(=O)NCc3cccc(C(F)(F)F)c3)o2)no1	1.5%
CC1(C)CC(=O)c2cnc(NC(=O)Cc3ccc(Cl)cc3)nc2C1	-16.7%
Cc1ccc(NC(=O)CSc2nc3ccc(NC(=O)c4ccco4)cc3s2)c(C)c1	4.3%
CCOc1ccc(CCN2C(=S)N([C@@H](Cc3ccc(O)cc3)CN3CCCC3CN3C(=S)NC[C@@H]3Cc3ccc(O)cc3)C[C@@H]2CC(C)C)cc1 (stereo partly drawn)	1.9%
O=C(NCc1ccc(OC(F)(F)F)cc1)C1CC2Cn3c(nc4ccccc43)C2N1c1ccccc1 (stereo not drawn)	-12.8%
CC1(c2ccccc2)NC(=O)N(CC(=O)Nc2cccc(/C=C/c3ccccn3)c2)C1=O (stereo not drawn)	7.1%
OCCC1CN(Cc2cccn2-c2cccnc2)CCN1C1CCCC1 (stereo not drawn)	7.6%
CCOc1ccccc1-n1c(SC(C)C(=O)NCC2CCCO2)nc2ccccc2c1=O (stereo not drawn)	6.5%

Compounds shown so far containing two or more sulfur atoms, in the order listed:
SMILES	VDR inhibitor
Cc1ccc(NC(=O)CCNS(=O)(=O)c2ccccc2)cc1S(=O)(=O)N1CCOCC1	-15.8%
COc1ccc(-n2c(Cn3c(=O)sc4ccccc43)nnc2SCC(=O)N2CCCC2)cc1	-8.3%
O=C1CNC(=S)N1c1nc(-c2ccccc2)cs1	-13.3%
CCCOC(=O)c1c(NC(=O)C(C)Sc2nc(-c3ccccc3)cc(C(F)(F)F)n2)sc(C(=O)N(C)C)c1C (stereo not drawn)	u
COc1ccc(F)cc1S(=O)(=O)NCCc1csc2nc(-c3cccc(C)c3)nn12	9.8%
CCOC(=O)C1CN(S(=O)(=O)c2ccc(OC)cc2)c2cc(S(=O)(=O)CC)ccc2O1 (stereo not drawn)	6.9%
Cc1cccc2nc(CSc3nnc(N)s3)cn12	1.2%
O=c1c(C(c2ccc(Br)cc2)c2c(O)nc3n(c2=O)CCS3)c(O)nc2n1CCS2	u
CCn1c(SCC(=O)Nc2nc(-c3ccccc3)cs2)nnc1-c1ccccc1	-8.8%
CC(/C=C1\SC(=S)N(CCCC(=O)Nc2ccc(C(=O)O)cc2)C1=O)=C\c1ccccc1	-22.4%
Cc1ccc(NC(=O)CSc2nc3ccc(NC(=O)c4ccco4)cc3s2)c(C)c1	4.3%
CCOc1ccc(CCN2C(=S)N([C@@H](Cc3ccc(O)cc3)CN3CCCC3CN3C(=S)NC[C@@H]3Cc3ccc(O)cc3)C[C@@H]2CC(C)C)cc1 (stereo partly drawn)	1.9%
